HIV TAR-Tat = HIV-1 TAR-Tat binding disruption | HIV-1 TAR RNA, Tat peptide displacement FRET; hits give high values | z-score (concentration not given with the values) | 0.6% of 100,000 active | AID 1259389;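 also: score is relative to mean and SD of negative controls; some compounds called inactive have numbers as strong as hits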
CDC25B-CDK2 inh = human CDC25B-CDK2/CyclinA binding inhibition; HTRF CDC25B-CDK2/CyclinA binding, anti-His/anti-Flag; hits give high values; z-score (test concentration not listed); 0.72% of 94,000 active;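 also: score is relative to mean and SD of negative controls; strong numbers were not always called active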
An asterisk follows results filed as active; x = not tested or not shown.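 The calls were made as follows: active = z-score from 3 up in half or more of its runs; inactive = the rest.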 An unsorted share of the library; about 0.97% have a hit in one of these screens.

SMILES | HIV TAR-Tat | CDC25B-CDK2 inh
COc1ccccc1N1C(=O)C2C(c3ccccc3Cl)NC(Cc3ccccc3)(C(=O)O)C2C1=O (stereo not drawn) | -0.32 | 0.74
CC1(C)COc2c(-c3ccccc3)nc3sc4c(NCCCO)ncnc4c3c2C1 | 2.1 | -3.2
CCOCCOC(=O)C1=C(C)NC2=C(C(=O)CC(c3cccs3)C2)C1c1ccsc1 (stereo not drawn) | -0.18 | -1.7
O=C(c1cnn2c(C(F)(F)F)cc(-c3ccccc3)nc12)N1CCN(c2ccccn2)CC1 | -0.61 | x
CCC1(C)NC(=S)N(c2ccccc2)N1 (stereo not drawn) | x | -0.1
COc1ccc(N2CCN(C(CNS(=O)(=O)c3ccccc3)c3ccco3)CC2)cc1 (stereo not drawn) | 1.5 | x
Cc1nn(-c2nncc(-c3ccc(F)cc3)n2)c2c1C(c1ccccc1)CC(=O)N2 (stereo not drawn) | 2 | -1.1
COCCNC(=O)Nc1ccc2c(c1)N(C)C(=O)c1ccccc1S2 | -1.7 | -2.4
CCc1c(C)nn2c1n1nc(C)c(CC)c1n1nc(C)c(CC)c21 | 3.7 | -0.19
O=C(CN1C(=O)COc2ccc(S(=O)(=O)N3CCCCCC3)cc21)NC1CC1 | x | -0.52
CCCCN(CC)CCNC(=O)C1CCCN(c2ncnc3onc(C)c23)C1 (stereo not drawn) | 2.5 | x
O=C(NCc1ccc2c(c1)OCO2)C1CCC(CNc2c(N3CCCCC3)c(=O)c2=O)CC1 (stereo not drawn) | 2.2 | -1.5

The list goes on, starting with the last six of the part before.
SMILES | HIV TAR-Tat | CDC25B-CDK2 inh
Cc1nn(-c2nncc(-c3ccc(F)cc3)n2)c2c1C(c1ccccc1)CC(=O)N2 (stereo not drawn) | 2 | -1.1
COCCNC(=O)Nc1ccc2c(c1)N(C)C(=O)c1ccccc1S2 | -1.7 | -2.4
CCc1c(C)nn2c1n1nc(C)c(CC)c1n1nc(C)c(CC)c21 | 3.7 | -0.19
O=C(CN1C(=O)COc2ccc(S(=O)(=O)N3CCCCCC3)cc21)NC1CC1 | x | -0.52
CCCCN(CC)CCNC(=O)C1CCCN(c2ncnc3onc(C)c23)C1 (stereo not drawn) | 2.5 | x
O=C(NCc1ccc2c(c1)OCO2)C1CCC(CNc2c(N3CCCCC3)c(=O)c2=O)CC1 (stereo not drawn) | 2.2 | -1.5
COc1ccc(S(=O)(=O)C(CNC(=O)C2CCCC2)c2cccs2)cc1 (stereo not drawn) | 0.04 | x
C=C1SC(Nc2ccc(C(=O)OCC)cc2)=NC1(CC)CC | x | -0.65
C=CCn1cnnc1C(CCC(C)C)CC(C)(C)O (stereo not drawn) | 0.89 | 0.31
C=CCn1c(=O)sc2cc(NC(=O)C3CCCCC3)ccc21 | 1.7 | x
COc1ccccc1N1CCN(c2nc(Nc3ccc(F)cc3)c3cnn(C)c3n2)CC1 | -0.32 | x
CC(NS(=O)(=O)c1cccs1)C(=O)N1CCc2ccccc21 (stereo not drawn) | 0.87 | 0.41
CN(C)c1ccc(NC(=O)c2cc3c(=O)n4ccccc4nc3n2C)cc1 | -0.09 | x
COc1ccc(-c2nc(N3CCN(C)CC3)c3ccccc3n2)cc1 | 0.26 | x
Cc1ccc2nc(NC3=NCN(CCc4cccs4)CN3)nc(C)c2c1 | -0.67 | 0.02
Cc1cc(C)cc(N2C(=O)N(c3ccccc3Cl)C3CS(=O)(=O)CC32)c1 (stereo not drawn) | 2 | 1.7
O=C(OCC1CCCO1)c1cnn2c(C(F)(F)F)cc(-c3ccc(F)cc3)nc12 (stereo not drawn) | 0.74 | -1.8
CC(=O)N1CCCSc2ccc(S(=O)(=O)NC3CCCC3)cc21 | -0.62 | x
CCOC(=O)c1c(C)[nH]c(C)c1S(=O)(=O)NCCN(C)C1CCCCC1 | -0.07 | x
O=C(CN1C(=O)c2cccc3cccc1c23)NCc1ccc2c(c1)OCO2 | 1 | 2.3
CC1=C(C#N)C(c2ccc(-c3ccccc3)cc2)C2=C(CCCC2=O)N1 (stereo not drawn) | 3.8 | -0.29
Cc1cc(C)c(NS(=O)(=O)c2ccc3c(c2)NC(=O)CC(C)S3)c(C)c1 (stereo not drawn) | 1.2 | x
CC1c2ccsc2CCN1C(=S)NC(=O)c1cccs1 (stereo not drawn) | x | -1.2
COc1ccc(C(=O)CSc2nc3ccc(Cl)cc3[nH]2)cc1OC | 2.4 | -1.9
CCn1c(/C=C/c2cn(CC)c3ccccc23)nc2ccccc2c1=O | 1.1 | -1.8
COc1ccc(NC(=O)N2CCN(C)c3ncccc32)cc1 | 1.4 | -2
CC1CCc2nn(CC(=O)Nc3ccc(Br)cc3)c(=O)cc2C1 (stereo not drawn) | -4.9 | x
COc1ccc(-c2c(C)n([O-])c3c([n+]2=O)CCC3)cc1 | x | -2.7
COc1cc(OC)c(NS(=O)(=O)c2ccc3c(c2)NC(=O)C(C)CS3)cc1Cl (stereo not drawn) | 0.56 | x
CC(C)Cc1cc(C(=O)NCCCN2CCOCC2)no1 | -0.8 | -0.55
O=C(O)CN(c1ccccc1)S(=O)(=O)c1ccc(Cl)cc1 | 1.5 | -1.1
CSc1cccc(NC(=O)NCc2cc(C)n(-c3cccc(Cl)c3)c2C)c1 | -0.14 | x
O=C(Nc1ccc(F)cc1)C1CCCN1c1nnc(N2CCCC2=O)s1 (stereo not drawn) | 2.5 | -3
O=C(O)CCC(NC(=O)c1cncc(Br)c1)C(=O)O (stereo not drawn) | 2.2 | -1.3
Cc1ccc2c(c1)c1c(n2C)C(O)CCC1 (stereo not drawn) | x | -0.57
O=C(NCCc1cccs1)C1CCN(c2nc3cccnc3s2)CC1 | -0.75 | x
O=C(CSc1nncn2c1cc1occc12)NCCc1ccccc1 | -5.4 | x
CCn1nc(C)c(CNS(=O)(=O)c2ccccc2Cl)c1C | -0.06 | x
CC(=O)N1CCc2cc(NC(=O)c3sc4ccccc4c3Cl)ccc21 | x | -1.9
CC1=C(C(=O)NCCN2CCN(C)CC2)C2(CCCCC2)OC1=O | 0.12 | x
Cc1ccc(C2CC(=O)NC3=C2C(=O)CC(C)(C)C3)cc1Br (stereo not drawn) | -5.4 | -0.83
CCOC(=O)N1CCN(c2c(NCCN3CCCCC3CC)c(=O)c2=O)CC1 (stereo not drawn) | 0.06 | -1.4
CCN(Cc1nc(-c2cccc(C)c2)no1)S(=O)(=O)c1c(C)cc(C)cc1C | 0.04 | -0.63
O=C(O)c1ccc(-c2n[nH]c(=O)c3ccccc23)cc1 | 14 | 1.9
COc1ccc(C2c3c(oc4ccc(F)cc4c3=O)C(=O)N2CCCN2CCOCC2)cc1 (stereo not drawn) | 1.7 | -1.2
O=C1c2cccnc2C(=O)N1Cc1ccc(S(=O)(=O)NCCC2=CCCCC2)cc1 | 1.9 | x
O=C(NCCCN1CCCC1=O)C1CCN(c2nnc(-n3cccc3)s2)CC1 | -0.05 | -0.22
Cn1cccc1Cc1nnc(SCC(=O)Nc2ccc3c(c2)OCO3)n1C | -2.1 | -1.2
CCS(=O)(=O)N1CCC2(CC1)OC(=O)C(C)=C2C(=O)Nc1cccnc1 | -0.64 | x
COc1ccc(-c2noc(NCc3ccc(OC)cc3OC)n2)cc1 | -2.2 | x
Cc1ccc2nc(-c3ccc(NC(=O)c4ccccc4)cc3)sc2c1 | x | 0.23
CCOC(=O)N1CCC(NC(=O)C2CCN(c3nc4ccc(OCC)cc4s3)CC2)CC1 | 0.3 | -0.14
Cc1ccc(-c2nc(-c3cc4cc(C)ccc4[nH]c3=O)no2)cc1 | -0.14 | -0.64
COc1cc(NC(=O)CSc2nc3ncccc3o2)cc(OC)c1 | -1.3 | x

Three compounds already listed, sorted by molecular weight, low to high.
SMILES | HIV TAR-Tat | CDC25B-CDK2 inh
Cn1cccc1Cc1nnc(SCC(=O)Nc2ccc3c(c2)OCO3)n1C | -2.1 | -1.2
O=C(NCCCN1CCCC1=O)C1CCN(c2nnc(-n3cccc3)s2)CC1 | -0.05 | -0.22
COc1ccc(C2c3c(oc4ccc(F)cc4c3=O)C(=O)N2CCCN2CCOCC2)cc1 (stereo not drawn) | 1.7 | -1.2

Continuation.
SMILES | HIV TAR-Tat | CDC25B-CDK2 inh
O=C(c1cc(-c2ccco2)[nH]n1)N1CCN(S(=O)(=O)c2ccc(Br)cc2)CC1 | -9.3 | x
Cc1nc2scc(-c3ccccc3)c2c(=O)o1 | x | -1.7
CCc1cc2c(SCC(=O)Nc3ccc(Br)cc3)ncnc2s1 | x | -8.6
CC1CCc2nn(CC(=O)NC3CCCc4ccccc43)cc2C1 (stereo not drawn) | 1 | 1.1
COC(=O)c1ccc(CN2C(=O)CSc3ncccc32)cc1 | 1.5 | x
N#CC(C#N)=Cc1c(-c2ccccc2)nc2n1CCS2 | x | -1.3
O=C(NC(=O)c1ccc(Oc2ccc(Cl)cc2)nc1)Nc1ccc(Cl)cc1 | x | 0.73
Cc1ccc(S(=O)(=O)NCc2nc(-c3ccccc3)oc2C)cc1 | 1.7 | x
CCOC(=O)c1noc2ncnc(Nc3ccc(F)cc3)c12 | 0.95 | x
COc1ccc(OC)c(C2C(C(=O)OCc3ccccc3)=C(C)Nc3nnnn32)c1 (stereo not drawn) | 2.5 | -0.27
CCS(=O)(=O)N1CCC2(CC1)OC(=O)C(C)=C2C(=O)N1CCN(c2ccc(F)cc2)CC1 | -0.12 | x
Cc1nn(CCCC(=O)Nc2sc3c(c2C(N)=O)CCC(C)C3)c(C)c1[N+](=O)[O-] (stereo not drawn) | x | 0.2
O=S(=O)(Nc1ccc2oc3c(c2c1)CCCC3)c1cccc2cccnc12 | x | 0.86
Cc1cc(C)c(-c2c(N3CCCC3)c(=O)c2=O)cc1C | 0.28 | x
CC12CCC(C(=O)O)(c3nc4ccccc4nc31)C2(C)C (stereo not drawn) | -1.1 | 0.84
Cc1cc(F)ccc1Nc1c(-c2ccc3c(c2)CCCC3)c(=O)c1=O | 0.65 | x
CCOC(=O)[C@H]1O[C@@H]1C(=O)N[C@@H](CC(C)C)C(=O)NCCC(C)C | 0.87 | x
O=C(NCCC1=CCCCC1)C1CCCN(C(=O)N2CCOc3ccccc32)C1 (stereo not drawn) | 3.3 | x
CNC(=O)c1ccccc1S(=O)c1ccc(Cl)cc1C(=O)O (stereo not drawn) | x | -0.18
O=C(C1CCN(c2ncnc3c2sc2cccc(F)c23)CC1)N1CCCC1 | 1.1 | 0.19
COC(=O)c1ccc(Nc2cc(N3CCOCC3)c3noc4c3c2C(=O)c2ccccc2-4)cc1 | 3.4 | 7.6*
O=C(NCCc1c[nH]c2ccccc12)Nc1ccc(Cl)cc1 | x | -1.1
CCCCc1nc2sc3c(NCCN(C)C)ncnc3c2c2c1COC(C)(C)C2 | 0.25 | -0.42
O=C(CS(=O)(=O)c1ccc2c(c1)S(=O)(=O)N=CN2)N1CCCCC1 | 0.15 | x
O=C(O)C1CCN(c2ncnc3c2sc2cccc(F)c23)CC1 | 0.98 | x
CCCS(=O)(=O)Nc1ccc2c(c1)N(S(=O)(=O)CCC)CCC2 | 1.3 | x
CCN1CCN(c2oc(/C=C/c3cccs3)nc2C#N)CC1 | 1.8 | 0.49
COc1ccc(CCNc2oc(COc3ccccc3F)nc2C#N)cc1OC | 1.2 | -0.26
COc1ccc(S(=O)(=O)NCCS(=O)(=O)N2CCN(c3ccccc3)CC2)cc1OC | 0.54 | x
COc1ccccc1N1C(=O)c2cccc3c(N4CCOCC4)ccc(c23)C1=O | -5.4 | -3.5
CCOC(=O)c1c(NC(=O)c2cc(=O)c3ccc(C)c(C)c3o2)sc2c1CCC2 | 1.2 | -1.1
CCC1C(=O)N=C(SCC(=O)Nc2ncccn2)NC1=O (stereo not drawn) | 2.3 | -0.46
CC(=O)N1CCOc2ccc(S(=O)(=O)N3CC(C)Sc4ccccc43)cc21 (stereo not drawn) | 1.9 | x
C=CCOc1c(OC)cccc1C1CC(=O)Nc2c1c(C)nn2-c1ccc2nnc(C)n2n1 (stereo not drawn) | 1.8 | x
COC(=O)c1cc2c(s1)CN(Cc1ccc(Cl)cc1)C2 | x | -2.2
COc1ccc(-c2c3c(=O)n(C)c(=O)n(C)c3c3n2C(C)(C)COC3c2ccccc2OC)cc1 (stereo not drawn) | 1.6 | 0.34
CN(C)CCN(Cc1ccccc1)c1ncnc2onc(-c3cc(F)cc(F)c3)c12 | 0.63 | x
Cc1cc(C)n(Cc2c(C(=O)NC3CC3)noc2C)n1 | 0.64 | x
Cc1ccc(-c2cn3ccccc3n2)cc1NS(=O)(=O)c1ccccc1 | 1.5 | -0.9
COc1ccc(OC)c(C2=NOC(C(=O)NC3CCCCC3)C2)c1 (stereo not drawn) | 0.24 | 0.58
O=C(Nc1ccc(F)cc1F)c1nccnc1Oc1cccc(C(F)(F)F)c1 | x | -0.68
NC1=NNC(=O)/C1=C\c1cc([N+](=O)[O-])ccc1N1CCOCC1 | x | -1.2
Cc1nc2sc(C(c3ccco3)N3CCC(Cc4ccccc4)CC3)c(O)n2n1 (stereo not drawn) | x | -2.2
Cc1cc2c(cc3c(SCC(=O)N(C)c4ccccc4)nncn32)o1 | -3.8 | x
Cc1cc(=O)n2cn[nH]c2n1 | x | -1.9
S=c1[nH]c2ccccc2n1Cc1ccccc1 | x | -1.2
O=C(O)c1cc2cc([N+](=O)[O-])ccc2s1 | x | -1.9
Cc1cc(N(C)Cc2ccccc2)n2nc(-c3ccccc3C)nc2n1 | 1.9 | 1.1
FC(F)(F)c1cccc(CSC(=S)NC2CC2)c1 | x | 1.8
O=S(=O)(Cl)c1cc(SSc2cc(S(=O)(=O)Cl)c3ccccc3c2)cc2ccccc12 | x | -18
COC(=O)c1cc(S(=O)(=O)N2CCN(C3CCCCC3)CC2)c[nH]1 | 2.6 | x
Cn1c(C(=O)NCc2cccnc2)cc2sccc21 | -1.8 | -0.91
COc1cc(-c2ccccc2)nc(N)n1 | 1.4 | -3.2
COc1ccc(-c2nc(COc3ccccc3-c3nnc(-c4ccccc4)o3)c(C)o2)cc1 | 0.92 | x
